CtBP-E1A inh: blocks the CtBP interaction with E1A | activity change, % (concentration not given with the values) | AlphaScreen GST-E1A/His-CtBP binding, 1536-well; hits give low values; control for the full effect not named in the record | AID 651724 | 340,000 compounds, 0.49% hits; in the data active means activity change below about -65%; inconclusive means about -30% to -65%; inactive means above about -30%; note: % is set by controls: 0 for no effect and ±100 for the full control effect
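Homogeneous bead-based format: GST-tagged E1A captured on glutathione donor beads, His-tagged CtBP on nickel acceptor beads; compounds precede bead addition by 2 h at 37 °C.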
TRPML1 agonist: activates the human TRPML1 channel; Q9GZU1; TRPML1-expressing cells, Ca2+ dye fluorescence, FDSS; host cell line not named in the record; reference of the full effect not given here; activation, % (no concentration beside the values); 410,000 compounds, 0.12% hits; in the data active = activation above about 50%; inconclusive = about 30% to 50%; inactive = below about 30%; note: 0% is about no effect; the text of the record puts the active cut at 80%
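In this qHTS format, compounds were pin-transferred onto Ca8-dye-loaded TRPML1-DL cells induced with Tet overnight, and intracellular Ca2+ fluorescence was recorded kinetically for 110 s after a 10 s baseline. A subsequent 4uM final 54-4 (EC80) addition followed by a second 110 s read served as the antagonist phase.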
TRPV1 PAM: human TRPV1 potentiation; Q8NER1; TRPV1-expressing cells, Fluo-8 calcium influx, capsaicin EC20 potentiation; host cell line not named in the record; control for the full effect not named in the record; potentiation, % at 8.33 µM; 320,000 compounds, 0.02% hits; AID 540277; active means potentiation above 80%; inconclusive means 30% to 80%; inactive means below 30%; note: 0% is about no effect
Target sequence (Q8NER1 whole entry, looked up): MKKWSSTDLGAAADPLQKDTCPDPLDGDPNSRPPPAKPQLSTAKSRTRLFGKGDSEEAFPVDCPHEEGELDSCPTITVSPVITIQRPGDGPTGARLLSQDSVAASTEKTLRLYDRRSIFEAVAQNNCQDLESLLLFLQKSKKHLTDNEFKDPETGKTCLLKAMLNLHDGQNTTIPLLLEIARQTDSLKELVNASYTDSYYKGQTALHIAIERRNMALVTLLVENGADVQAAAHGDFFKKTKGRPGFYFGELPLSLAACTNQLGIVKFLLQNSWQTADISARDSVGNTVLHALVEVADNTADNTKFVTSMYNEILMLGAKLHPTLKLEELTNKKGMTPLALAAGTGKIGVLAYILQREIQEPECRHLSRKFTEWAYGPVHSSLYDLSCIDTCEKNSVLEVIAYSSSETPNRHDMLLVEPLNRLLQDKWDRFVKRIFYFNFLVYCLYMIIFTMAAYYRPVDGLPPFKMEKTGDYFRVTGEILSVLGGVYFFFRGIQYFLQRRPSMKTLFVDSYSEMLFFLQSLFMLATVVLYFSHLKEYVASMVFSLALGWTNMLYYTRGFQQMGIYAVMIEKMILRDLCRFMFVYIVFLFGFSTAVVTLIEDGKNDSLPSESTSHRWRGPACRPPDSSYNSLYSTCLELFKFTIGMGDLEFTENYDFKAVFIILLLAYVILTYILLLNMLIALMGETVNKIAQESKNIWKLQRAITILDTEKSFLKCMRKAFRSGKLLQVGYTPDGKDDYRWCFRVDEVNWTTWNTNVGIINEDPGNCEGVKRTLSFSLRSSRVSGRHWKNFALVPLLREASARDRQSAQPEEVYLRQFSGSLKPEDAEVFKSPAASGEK
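Fluo-8 calcium influx in TRPV1-expressing cells, kinetic read (ex 480/em 520 nm). Compound added and read 3 min for agonist activity, followed by capsaicin at EC20 final and 2 min further read for enhancement.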
Six1-Eya2 inh: Six1/Eya2 interaction inhibition; Q15475+O00167; activity change, % (concentration not given with the values); 360,000 compounds, 0.56% hits; AlphaScreen GST-Six1/His-Eya2 binding, biochemical; hits give low values; control for the full effect not named in the record; in the data active = activity change below about -65%; inconclusive = about -30% to -65%; inactive = above about -30%; note: % is set by controls: 0 for no effect and ±100 for the full control effect
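Six1/Eya2 binding was read as AlphaScreen signal after compounds were pinned into GST-Six1 plus His-tagged Eya2 (5X stock 250/500 nM) in pH 8.0 Tris/NaCl/TCEP buffer, beads added, then incubated 1 h, 37 C, dark.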
D2 PAM: potentiates the human D2 dopamine receptor allosterically; P14416; DiscoveRx D2 beta-arrestin cells, luminescence, 90 min; 100% = 57 uM dopamine signal; potentiation, % (no concentration beside the values); 360,000 compounds, 0.23% hits; active = potentiation of 50% or more; inconclusive = 30% to 50%; inactive = 30% or less;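 note: compound concentration not given in the record; tested on top of an EC20 dose of dopamine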
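PathHunter D2 cells, attached overnight at 37 deg C, received compound in DMSO plus dopamine at EC20 (50 nM final) for 90 min at 37 deg C. Beta-arrestin recruitment was read as luminescence after 1 h with detection reagent at ambient temperature.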
TRPML1 blocker: inhibitors of human TRPML1 channel. Q9GZU1. 390,000 compounds, 0.02% hits. TRPML1-inducible cells, Ca2+ dye fluorescence, FDSS; hits give low values; inhibition of EC80 agonist-evoked calcium signal. activity change, negative = inhibition, % (test concentration not listed). AID 624415; in the data active means activity change below about -50%; inconclusive means about -30% to -50%; inactive means above about -30%;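 note: stimulus is agonist 54-4 at its EC80 concentration; % is set by controls: 0 for no effect and ±100 for the full control effect; compound concentration not given in the record; the text of the record puts the active cut at -80%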
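Tet-induced TRPML1-DL cells loaded with Ca8 no-wash calcium dye were read kinetically on FDSS. Compound addition was followed by EC80 agonist 54-4 (4 uM final); inhibition was read over 110 s.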
The depositor's hits bear a star; ? = inconclusive; . = not tested or not shown; & = joins results of further samples. The order is random, and some 0.95% of all compounds hit somewhere here.

SMILES	CtBP-E1A inh	TRPML1 agonist	TRPV1 PAM	Six1-Eya2 inh	D2 PAM	TRPML1 blocker
Cc1ccc(C(=O)N(Nc2nc3ccccc3s2)C(=O)c2ccc(C)cc2)cc1	9	-1.0	-19	1	-5	11
CC12CCC(C(=O)Nc3cc(Cl)ccc3Cl)(C/C1=N\O)C2(C)C (centres undefined)	7	2.8	-18	2	-3	12
O=C1CC(N2CCN(c3ccccn3)CC2)C(=O)N1c1ccc(F)cc1 (centres undefined)	.	-0.1	-4	10	-5	8
c1ccc(C(Nc2cccnc2)c2ccccc2)cc1	3	3.9	.	-3	-19	1
CC(C)CNC(=O)C(=O)NCCC1CCCCN1S(=O)(=O)c1cccs1 (centres undefined)	-25	-0.5	-9	10	3	-9
CC1CCN(CC(=O)Nc2sc3c(c2C#N)CCC3)CC1	0	-1.3	-6	-2	-15	27
CCC(CC)C(=O)Nc1cccc(/C(C)=N/NC(=O)c2ccccc2Cl)c1	2	-1.3	2	2	-9	4
CN1C(=O)/C(=C2\SC(=S)N(NC(=O)c3cccnc3)C2=O)c2ccccc21	.	1.7	10	-16	-37	4
Cc1cncc(NCc2cccc(Cl)c2)n1	14	-1.1	.	8	-4	.
Cc1ccc(NC(=O)c2oc3ccccc3c2NC(=O)C2CCCO2)cc1C (centres undefined)	-1	3.3	-3	5	-2	29

One compound at a time (already shown):
`CC1CCN(CC(=O)Nc2sc3c(c2C#N)CCC3)CC1` is listed with CtBP-E1A inh = 0; TRPML1 agonist = -1.3; TRPV1 PAM = -6; Six1-Eya2 inh = -2; D2 PAM = -15; TRPML1 blocker = 27
`Cc1ccc(C(=O)N(Nc2nc3ccccc3s2)C(=O)c2ccc(C)cc2)cc1` is listed with CtBP-E1A inh = 9; TRPML1 agonist = -1.0; TRPV1 PAM = -19; Six1-Eya2 inh = 1; D2 PAM = -5; TRPML1 blocker = 11
`CC12CCC(C(=O)Nc3cc(Cl)ccc3Cl)(C/C1=N\O)C2(C)C` (centres undefined) is listed with CtBP-E1A inh = 7; TRPML1 agonist = 2.8; TRPV1 PAM = -18; Six1-Eya2 inh = 2; D2 PAM = -3; TRPML1 blocker = 12

The listing picks up with the 2 entries that preceded the break.
SMILES	CtBP-E1A inh	TRPML1 agonist	TRPV1 PAM	Six1-Eya2 inh	D2 PAM	TRPML1 blocker
Cc1cncc(NCc2cccc(Cl)c2)n1	14	-1.1	.	8	-4	.
Cc1ccc(NC(=O)c2oc3ccccc3c2NC(=O)C2CCCO2)cc1C (centres undefined)	-1	3.3	-3	5	-2	29
C/C(=C\C(=O)c1ccncc1)Nc1ccccc1O	-3	0.1	.	2	50*	6
COc1cc(C)ccc1OCCOc1c(C)cccc1Cl	-1	1.7	9	42	-8	1
Cc1ccc(S(=O)(=O)N2CCOCC2)cc1C(=O)NC(=S)N1CC(C)OC(C)C1 (centres undefined)	.	-0.5	-3	6	-13	-11
CCSC1=NCCN1S(=O)(=O)c1ccc(NC(C)=O)cc1	.	0.3	-11	-2	-10	-7
Cc1cc(C(=O)COC(=O)c2csc3c2CCCC3)c(C)n1C	-11	2.0	-3	0	7	-20
CCOC(=O)CSc1ncnc2c1cnn2-c1ccccc1	-19	0.7	-1	15	-11	-21
Cc1cc(S(=O)(=O)Nc2nc(CN3CCOCC3)nc3sc4c(c23)CCC4)cc(C)c1C	-11	-0.4	10	-6	-11	-2
CCOC(=O)c1[nH]c(Cc2[nH]c(C(=O)OCC)c(C)c2CCC(=O)OC)c(CCC(=O)OC)c1C	-10	1.8	0	-22	0	19
Cc1cccc(C)c1NC(=O)C1c2ccccc2OCC(=O)N1Cc1cccnc1 (centres undefined)	6	-0.3	.	-2	.	.
CCOc1ccc(NC(=O)CN(C)C(=O)COc2cccc3c2OC(C)(C)C3)cc1OCC	-20	1.0	12	-5	-3	-14
CCN1CCN(Cc2ccc(NC(=O)c3ccc(C)c(NC(=O)c4ccnnc4)c3)cc2C(F)(F)F)CC1	-1	0.5	?	1	-13	16
NC(=O)NN=C1CCC(OCc2ccccc2)CC1CC(=O)O (centres undefined)	0	-0.4	.	11	-3	.
O=C(CSc1nnc(Cc2ccccc2)o1)NCCc1ccccc1	-14	-0.1	16	-3	0	17
O=C(Cc1cccs1)Nc1ccccc1C(=O)O	4	1.0	-2	9	5	-3
COc1ccc(S(=O)(=O)N2CCN(CCOc3ccc(Br)cc3)CC2)cc1OC	.	1.1	28	-7	-8	-6
CC(C)C(=O)Nc1nnn(C)n1	0	-0.1	0	0	12	-18
Fc1ccc(Nc2ncnc3sc4c(c23)CCC4)cc1F	-3	-0.1	-11	2	1	3
CC1Sc2ccc(C(=O)N(CCc3ccccc3)Cc3ccccc3)cc2NC1=O (centres undefined)	-8	1.1	.	33	-9	-14
CC(=O)Nc1ccc(Oc2ccc3c(c2)C(=O)NC3=O)cc1	-1	-0.4	-7	-5	0	-1
CC(C(=O)OCC(=O)c1ccc([N+](=O)[O-])cc1)N1C(=O)C2C3CCC(C3)C2C1=O (centres undefined)	2	-0.1	7	3	3	-11
Cc1ccc(CN(Cc2ccco2)C(=S)NCC(=O)NCc2cccnc2)cc1	-2	1.4	-7	-4	4	14
CN(C)C(/C=C/Nc1ccc(O)cc1)=C(C#N)C#N	8	1.4	8	-5	-21	-17
Cc1cc(C)cc(NC(=O)C(c2ccccc2)N2CCCC2)c1 (centres undefined)	2	2.2	-4	4	-9	10
Cn1c(N)c(C(=O)c2cc(-c3ccccc3)nc3ccccc23)c(=O)n(C)c1=O	2	1.9	-10	-6	-3	1
COc1ccc(Br)cc1/C=N/n1c(-c2ccccc2)n[nH]c1=S	-1	1.0	80*	1	-4	8
CC1(C(=O)N2CCC(CC3CC(c4cccc(Br)c4)=NO3)(C(=O)NCC3CCCCC3)CC2)CC1 (centres undefined)	21	0.1	5	14	-15	61
C[C@@H]1COC(=O)[C@@H](Cc2ccc(F)cc2)C/C=C\C[C@H](CC(=O)N(CCO)Cc2ccccc2)C(=O)N1	0	-0.8	.	-18	.	-5
C/C(N)=C(/C#N)C(=O)COC(=O)Cc1coc2ccc3ccccc3c12	-6	-1.4	-8	-1	19	-13
N#Cc1c(F)cccc1NCc1cccnc1	-16	-1.0	28	-17	-7	16
COc1ccccc1CNC(=O)CCCN1C(=O)COc2ccc(C)cc21	4	0.7	4	2	-9	-5
CC(C)CNS(=O)(=O)c1ccc(CCC(=O)Nc2ccc3c(c2)OCO3)cc1	0	2.1	11	2	10	1
Cc1ccc(S(=O)(=O)/C(C#N)=C/c2c(N3CCCCC3)nc3ccccn3c2=O)cc1	?	1.1	-1	?	-9	2
CCOC(=O)Cc1csc(NC(=O)CC)n1	-1	0.3	9	6	-10	-1
COC(=O)c1sccc1NC(=O)C12CC3CC(CC(C3)C1)C2	-12	1.4	.	6	1	-3
Cc1ccc([N+](=O)[O-])c(OCCN2CCC(Cc3ccccc3)CC2)c1	-1	1.1	18	-21	-16	29
CCOC(=O)CC(=O)CSc1nc2c(cc1C#N)CCCCC2	-1	1.8	5	-1	9	-3
Cn1c(=O)cc(OCC(=O)NCCCN2CCN(c3cccc(Cl)c3)CC2)c2ccccc21	-20	0.8	-2	-19	-11	21
CCCCN1CC(O)=C(c2nc3ccccc3s2)C1=N	-15	1.6	?	-8	-16	1
Cc1csc(NC(=O)c2cccnc2)n1	.	.	-8	3	-13	.
Cc1ccccc1-n1nnnc1SCCCC(=O)c1ccc(F)cc1	-12	3.7	-9	26	-14	67
COC(=O)c1ccc(CNC(=O)Cn2cnc3c(OCc4ccccc4)ncnc32)cc1	7	-0.2	.	2	0	3
CCOC(=O)CN(C(=O)COc1ccc2c(C)cc(=O)oc2c1)c1ccc(OCC)cc1	-5	-0.3	-2	2	0	8
Cc1ccc(NC(=O)COC(=O)C2CCC2)cc1S(=O)(=O)N1CCOCC1	1	0.4	.	24	-8	-10
COc1ccc(NC(=O)c2oc3ccccc3c2NC(=O)COc2ccccc2OC)c(OC)c1	8	0.5	-4	3	7	-3
Cc1cc(/C=N/NC(=O)c2cccs2)c(C)n1-c1ccccc1	-13	-0.8	2	-13	-10	6
CCN(CC)CCN(C(=O)Cn1nnc(-c2ccc(C)o2)n1)C(C(=O)NC(C)(C)C)c1cccs1 (centres undefined)	2	-0.6	-6	-3	-6	-8
COc1cc(NC(=O)c2ccco2)c(C(=O)OCC(=O)Nc2ncc(Cl)cc2Cl)cc1OC	-19	1.0	-10	-26	-15	-21
CN(C)S(=O)(=O)N1CCC(Cc2ccccc2)CC1	3	-0.4	-28	8	13	14
Cc1ccccc1C(=O)NCCNC(=O)c1cnccn1	3	-0.5	3	3	-3	30
COCc1cc(=O)[nH]c(SCCS(=O)(=O)c2ccc(C)cc2)n1	-18	-0.7	0	-3	-9	7

New compounds follow
SMILES	CtBP-E1A inh	TRPML1 agonist	TRPV1 PAM	Six1-Eya2 inh	D2 PAM	TRPML1 blocker
CCC(Sc1nc2ccccc2c(=O)n1CCN1CCOCC1)C(=O)NCc1cccnc1 (centres undefined)	0	0.1	-1	1	-13	-1
COc1cc(C(=O)N2CCN(c3ccccc3)CC2)c([N+](=O)[O-])cc1OC	1	-0.3	2	-1	-9	19
Cc1ccc2c(c1)N(CC(=O)N1CCCC(C)C1)C(=O)CO2 (centres undefined)	7	-0.5	1	1	-3	-1
CCCc1cc(=O)oc2cc(O[C@@H]3O[C@H](CO)[C@@H](O)[C@H](O)[C@H]3O)ccc12	.	-0.8	2	-15	-3	-5
Nc1cccc2c(=O)c3ccccc3[nH]c12	-2	0.0	-7	-8	2	9
O=C(CN1C(=O)NC2(CCCCCC2)C1=O)c1ccccc1	3	-0.3	1	5	2	4
C(=N\NC1=Nc2cccc3cccc1c23)/c1ccccn1	.	2.6	-6	?	8	-1
COc1ccc(/C=N/N2CCN(c3ccncc3S(=O)(=O)N3CCCCC3)CC2)cc1	-5	-0.3	4	-8	-13	11
O=C(NC1CCCC1)C(c1ccccc1)N(C(=O)c1ccco1)C1CCCC1 (centres undefined)	5	6.5	-19	-2	-6	1
CCCCCCc1ccc(N2C[C@H](CCCCC)[C@@H](CC(=O)NCc3ccccc3)C2=O)cc1	10	0.8&1.5	-5	15	-5	-8
CC(=O)OC(C)(C)C1Cc2cc3ccc(=O)oc3cc2O1 (centres undefined)	4	-0.6	6	1	3	10
CN(C)c1ccc(CN2CCCC(O)C2)cc1 (centres undefined)	-1	0.2	7	-1	-1	3
Nc1nc(SCc2nc(-c3ccccc3)no2)[nH]c(=O)c1-c1ccccc1	-12	-0.3	19	-2	3	-14
CCCNC(=O)Nc1cc(S(=O)(=O)CC)ccc1O	-7	1.2	1	0	-8	8
COc1ccc(CN2CCC2(C)C(=O)NCCc2c[nH]c3ccccc23)c2ccccc12 (centres undefined)	-8	-0.8	.	-17	1	.
Nc1ccc(Oc2ncccn2)c(Cl)c1	-6	1.7	6	-11	-9	33
Cc1ccc(-c2nc(CN(Cc3cnn(C)c3)C(C)C)c(C)o2)o1	4	-0.1	-18	-2	-4	23
Cc1ccc2cc(CN(CCCN3CCOCC3)C(c3nnnn3Cc3ccco3)C(C)C)c(=O)[nH]c2c1C (centres undefined)	-3	0.5	.	-5	-10	-5
O=C(NC(Cc1c[nH]c2ccccc12)c1nnc2n1CCCCC2)c1ccccc1 (centres undefined)	-2	0.9	7	0	-5	16
Brc1ccc2c(c1)-c1ccccc1C1=NCCN12	-7	0.2	.	?	-16	-2

Assay outcomes (PubChem)
